GIV-Gai inh: inhibitors of GIV peptide binding to Galpha-i3, primary screen, biochemical, fluorescence polarization, FITC-GIV GBA peptide, rat Galphai3. Guanine nucleotide-binding protein G(i) subunit alpha-3 (Rattus norvegicus), P08753. AID 1224905, 2016. percent of control (FP), % (concentration not given with the values). 210,000 compounds, 0.42% hits. 90 min; hits give low values; scaled: aluminum fluoride 0%, vehicle 100%;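 active = replicate mean at 85% of control or lower, very high polarization wells dropped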;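 note: wells of about 15 µL received 100 nL stock; the first replicate is given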
Target sequence (P08753 whole entry, looked up): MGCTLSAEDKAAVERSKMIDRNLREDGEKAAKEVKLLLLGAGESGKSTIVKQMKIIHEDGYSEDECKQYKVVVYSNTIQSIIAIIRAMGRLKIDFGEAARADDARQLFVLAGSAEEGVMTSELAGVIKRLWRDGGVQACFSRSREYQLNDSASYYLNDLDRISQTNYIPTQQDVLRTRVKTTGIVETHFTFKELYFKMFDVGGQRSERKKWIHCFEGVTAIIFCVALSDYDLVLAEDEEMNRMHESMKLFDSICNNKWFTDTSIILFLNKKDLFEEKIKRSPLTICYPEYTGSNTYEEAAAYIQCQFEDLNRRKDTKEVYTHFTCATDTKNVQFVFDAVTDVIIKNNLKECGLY
Active calls of the source: *.

SMILES	GIV-Gai inh
CCOC(=O)C1=NN(c2ccccc2)C(c2c[nH]c3ccccc23)N1c1ccc(C)cc1 (stereo not given)	110
Cc1ccc(C2C3=C(CC(C)(C)CC3=O)Nc3ccccc3N2C(=O)C(C)C)cc1 (stereo not given)	103
COc1cccc2cc(-c3nc(-c4ccccc4)cs3)c(=O)oc12	111
CCc1nnc(-c2cc(NS(=O)(=O)CC)c(C)s2)o1	96
O=C(COc1ccc(F)cc1)Nc1nnc(C2CC(=O)N(c3ccc(F)cc3)C2)o1 (stereo not given)	105
CCSc1nc2ccc(NS(=O)(=O)c3cc(F)ccc3F)cc2s1	104
CC(=O)NC1(c2nnnn2-c2cccc(Cl)c2)CCC(C)CC1 (stereo not given)	105
COc1ccc(-n2c(-c3ccco3)n[nH]c2=S)cc1	108
CCN1CCN(CCCNC(=O)c2ccc3c(=O)n(Cc4ccc(Cl)cc4)c(=S)[nH]c3c2)CC1	106
O=C(c1cccc(F)c1)N1c2ccccc2Sc2ccccc21	112
COC(=O)c1ccc2c(=O)n(-c3ccc(F)cc3)c(N3CCN(c4ccc(F)cc4)CC3)nc2c1	101
CC(C)c1ccc(N(C)S(=O)(=O)c2ccc3[nH]cc(C(=O)N(C)Cc4ccccc4)c(=O)c3c2)cc1	102
COCCCNC(=O)Cn1ccc2c(SCc3ccc(OC)cc3)nccc21	106
CCOC(=O)c1sc2nc(SCC(=O)NCc3ccco3)n(Cc3cccc(Cl)c3)c(=O)c2c1C	114
CC(c1nnc(SCC(=O)Nc2ccc(Br)cc2)n1C)N1C(=O)COc2ccccc21 (stereo not given)	97
CSc1nc2c(sc(=S)n2-c2ccccc2)c(=O)[nH]1	114
Cc1ccc(N2C(=O)/C(=C/c3ccc([N+](=O)[O-])cc3)C=C2c2ccccc2)c(Br)c1	112
CC1CCN(C(=O)CSc2nc(NCc3ccccc3)c3ccccc3n2)CC1	119
CN(C)c1cc(N2CCCC(NC(=O)C3CCC3)C2)ncn1 (stereo not given)	100
Cc1ccc(CNC(=O)Cn2ccc3c(c(C)nn3-c3ccc(C)cc3)c2=O)cc1	106
CCCCN(CCCC)CC(O)CN(c1ccc(C)cc1)S(=O)(=O)c1ccc([N+](=O)[O-])cc1 (stereo not given)	108
Cc1ccc(C)c(N2CCN(C(=O)CN(C)S(=O)(=O)c3ccc4c(c3)C(=O)NCC(=O)N4)CC2)c1	101
Cc1sc(C)c(S(=O)(=O)NC2CCCCC2)c1-c1cc(C(F)(F)F)on1	102
Cc1cccc(NC(=O)c2ccc3nnc(SCC(=O)Nc4ccc(Cl)cc4)n3c2)c1	104
O=C(C1=CN(c2cc(F)cc(F)c2)c2cc(Cl)ccc2S1(=O)=O)N1CCCC1	96
CCC(=O)N1CCCN(c2cc(=O)n(C(C)C)c(=O)n2C(C)C)CC1	102
CC(C)c1cc(C2CCCN2C(=O)c2cc(C(F)(F)F)n(C)n2)on1 (stereo not given)	97
N#Cc1ccc(Cn2c3ccccc3c3nc4cc(F)ccc4nc32)cc1	111
Cc1nc(CCNC(=O)[C@H]2CCCN2C(=O)c2ccccc2C)cs1	100
O=C(Nc1ccc(F)cc1)C1CCC(CNS(=O)(=O)c2cccc3cccnc23)CC1 (stereo not given)	94

No new results follow: an excerpt of the list.
SMILES	GIV-Gai inh
CCOC(=O)c1sc2nc(SCC(=O)NCc3ccco3)n(Cc3cccc(Cl)c3)c(=O)c2c1C	114
CC(c1nnc(SCC(=O)Nc2ccc(Br)cc2)n1C)N1C(=O)COc2ccccc21 (stereo not given)	97
CSc1nc2c(sc(=S)n2-c2ccccc2)c(=O)[nH]1	114
Cc1ccc(N2C(=O)/C(=C/c3ccc([N+](=O)[O-])cc3)C=C2c2ccccc2)c(Br)c1	112
CC1CCN(C(=O)CSc2nc(NCc3ccccc3)c3ccccc3n2)CC1	119
CN(C)c1cc(N2CCCC(NC(=O)C3CCC3)C2)ncn1 (stereo not given)	100
Cc1ccc(CNC(=O)Cn2ccc3c(c(C)nn3-c3ccc(C)cc3)c2=O)cc1	106
CCCCN(CCCC)CC(O)CN(c1ccc(C)cc1)S(=O)(=O)c1ccc([N+](=O)[O-])cc1 (stereo not given)	108
Cc1ccc(C)c(N2CCN(C(=O)CN(C)S(=O)(=O)c3ccc4c(c3)C(=O)NCC(=O)N4)CC2)c1	101
Cc1sc(C)c(S(=O)(=O)NC2CCCCC2)c1-c1cc(C(F)(F)F)on1	102
Cc1cccc(NC(=O)c2ccc3nnc(SCC(=O)Nc4ccc(Cl)cc4)n3c2)c1	104
O=C(C1=CN(c2cc(F)cc(F)c2)c2cc(Cl)ccc2S1(=O)=O)N1CCCC1	96
CCC(=O)N1CCCN(c2cc(=O)n(C(C)C)c(=O)n2C(C)C)CC1	102
CC(C)c1cc(C2CCCN2C(=O)c2cc(C(F)(F)F)n(C)n2)on1 (stereo not given)	97
N#Cc1ccc(Cn2c3ccccc3c3nc4cc(F)ccc4nc32)cc1	111

Additional records:
SMILES	GIV-Gai inh
Cc1noc(Cn2cnc3c4cc(F)ccc4n(Cc4ccccc4F)c3c2=O)n1	104
O=C1Nc2ccccc2OC1C(=O)N1CCN(c2ccccc2F)CC1 (stereo not given)	101
CCOC(=O)N1CCN(C(=O)c2c[nH]c3ccc(S(=O)(=O)N(C)c4ccc(C)c(C)c4)cc3c2=O)CC1	100
O=S(=O)(NC1c2cccc3cccc(c23)C1N1CCN(C(=S)Nc2ccccc2)CC1)c1ccccc1 (stereo not given)	115
O=C(Nc1nnc(SCC(=O)N2CCOCC2)s1)NC1CCCCC1	101
COc1ccc(C(=O)NC(c2ccc(OC)c(OC)c2)c2cc(Cl)c3cccnc3c2O)cc1 (stereo not given)	105
CC1(C)Cc2c(sc3nc[nH]c(=O)c23)CO1	118
Cc1c(CCNC(=O)c2ccc(Br)cc2)sc2nc(-c3ccc(F)cc3)nn12	100
CCSc1sc(CC)cc1C1C(C(=O)Nc2cccc(C)n2)=C(C)NC2=C1C(=O)CC(C)(C)C2 (stereo not given)	102
O=c1ccc(-c2ccc(F)cc2)nn1CCc1nc(-c2ccncc2)no1	105
Cc1cccc(-n2ncc3c(Nc4ccc(Br)cc4)ncnc32)c1	110
CNc1nc(OCC(F)(F)F)nc(N2CCN(C34CC5CC(CC(C5)C3)C4)CC2)n1	104
Cc1c(N=Cc2c(F)cccc2Cl)c(=O)n(-c2ccccc2)n1C	113
COc1ccc(/C=C2\C=C(c3ccccc3)N(c3ccc(Cl)c(C(=O)O)c3)C2=O)cc1	122
C=CCOC(=O)C1=C(C)NC(SCC(=O)Nc2ccccc2CC)=C(C#N)C1c1ccco1 (stereo not given)	100
CCS(=O)(=O)N1CCN(c2ncnc3c2nnn3-c2cccc(F)c2)CC1	98
Cc1nc(N2CCN(C)CC2)c2c(C)c(C(=O)Nc3cccc(C(F)(F)F)c3)sc2n1	98
CCc1c(C)nc2ncnn2c1Sc1ccc(NS(=O)(=O)c2cccc3nsnc23)cc1	105
O=C(CSc1nc2ccccc2n1S(=O)(=O)c1cccc([N+](=O)[O-])c1)NCc1ccccc1	108
O=c1[nH]c2cc(Cl)c(S(=O)(=O)Nc3ccc(F)cc3F)cc2[nH]1	111
CCn1nc2c(S(=O)(=O)N3CCN(c4ccc(F)cc4)CC3)cccn2c1=O	104
COc1ccc(-n2ncc3c(Nc4cc(C)ccc4C)ncnc32)cc1	102
O=C(NCCc1cscn1)C1CCN(C(=O)c2ccc(Br)o2)CC1	102
CCNc1nc(C(N)=O)c(NC(=O)c2ccc(CN3CCCCC3)cc2)s1	103
CCC1(C)OC(=O)N(CCO)C1(C)O (stereo not given)	115
O=C(NCC1CCCO1)c1ccc(Oc2ccnc(-c3ccc(F)cc3)n2)cc1 (stereo not given)	102
CC(C)CSc1nc(N2CCOCC2)c2c(c1C#N)CC(C)(C)OC2	98
CCOC(=O)N1CCN(C(=O)c2ccc(N3CC4CC(C3)c3cccc(=O)n3C4)c(NC(=O)c3ccncc3)c2)CC1 (stereo not given)	105
O=C(C1CC(=O)N(c2ccc(F)cc2)C1)N1CCN(c2ncnc3c2nnn3-c2ccccc2)CC1 (stereo not given)	94
Cc1oc(C2CCN(C(=O)c3ccc(Cl)s3)CC2)nc1C(=O)N1CCSCC1	90

Given as labelled records: entries from further up
O=c1ccc(-c2ccc(F)cc2)nn1CCc1nc(-c2ccncc2)no1
- GIV-Gai inh = 105
CCS(=O)(=O)N1CCN(c2ncnc3c2nnn3-c2cccc(F)c2)CC1
- GIV-Gai inh = 98

Carrying on:
SMILES	GIV-Gai inh
Cc1ccc(N(CC(O)CN(Cc2ccccc2)Cc2ccccc2)S(=O)(=O)c2ccccc2)cc1 (stereo not given)	107
CCCCN1CCN(S(=O)(=O)c2cc(-c3nnc(C4CCC4)o3)co2)CC1	99
CCC(=O)Nc1cccc(-c2noc(C3CCCN(C(=O)c4ccc(OC)cc4C)C3)n2)c1 (stereo not given)	108
O=S(=O)(c1cc(-c2cc(C(F)(F)F)on2)cs1)N1CCN(C2CCCCC2)CC1	103
CCC(C)NC(=O)N1CCCN(C2=NS(=O)(=O)C(c3ccc(F)cc3)=C2C)CC1 (stereo not given)	102
O=C(Cn1cnc2c(sc3ncccc32)c1=O)N1CCN(c2ccc(F)cc2)CC1	99
Cn1c(N2CCCC(C(=O)NCCN3CCCC3)C2)cc(=O)n(C)c1=O (stereo not given)	111
CCS(=O)(=O)N1CCCN(C(=O)C2CC2)CC1	101
Cc1cc(C2CCCN2C(=O)c2ccccc2F)on1 (stereo not given)	100
CCc1cc(C2CCCN2C(=O)c2cc(C(F)(F)F)n(C)n2)on1 (stereo not given)	101
CC(C)CCNC(=O)CN(C)S(=O)(=O)c1cc2c(cc1Cl)NC(=O)CO2	108
CCCc1[nH]n(-c2ccc(F)cc2)c(=O)c1C=NCCCN1CCOCC1	105
COc1ccc(-c2csc(C)n2)cc1S(=O)(=O)Nc1ccc(S(N)(=O)=O)cc1	101
CCN1CCN(S(=O)(=O)c2cc(-c3nnc(C4CCC4)o3)co2)CC1	102
Cc1ccc(C)c(N2CC(O)(c3cccc([N+](=O)[O-])c3)[N+]3=C2SCCC3)c1 (stereo not given)	105
COc1ccc(-n2c(=S)[nH]c3cc(C(=O)NCCCN4CCCC4=O)ccc3c2=O)c(OC)c1	107
O=C(Nc1nnc(SCC(=O)N2CCc3ccccc32)s1)NC1CCCCC1	94
Cc1ccc(C2Nc3cccc4cccc(c34)C(=O)CS2)cc1 (stereo not given)	103
C=Cc1ccc(CSc2nc3c(c(=O)[nH]2)CN(Cc2ccc(OC)cc2)CC3)cc1	101
Brc1ccc(-c2noc(Cc3nc(-c4ccccc4)cs3)n2)cc1	97
COc1ccc(S(=O)(=O)Cc2nc(-c3ccccc3)no2)cc1OC	105
CCCCCCc1cc2cc(-c3nc(-c4ccc(Cl)cc4)cs3)c(=Nc3ccccc3)oc2cc1O	138
CCCCOc1ccc(C2C(N3C(=O)c4ccccc4C3=O)C(=O)N2c2ccc(Br)cc2)cc1 (stereo not given)	112
CCC(=O)Nc1nc2c(c3c1c(=O)oc1ccccc13)CCCC2	101
N#CC1(C#N)[C@@H]2c3ccccc3C=CN2[C@@H](C(=O)c2cccs2)[C@@H]1c1cccs1	117
CCN(Cc1ccccc1)c1ccc(NC(=O)c2ccccc2)cc1C(=O)O	104
CCc1ccc2c(c1)[C@H]1OCC[C@H]1C(c1cc(Cl)ccc1OC)N2 (stereo not given in full)	100
Cc1[nH]c2c(c1CC(Cl)(Cl)Cl)C(=O)CC(C)(C)C2	116
Cc1ccc(C2/C(=C(\O)c3ccc(F)cc3)C(=O)C(=O)N2CCN2CCOCC2)cc1 (stereo not given)	108
COc1ccc(C(=O)CSc2nc(-c3cccs3)ccc2C#N)cc1OC	106
CCCS(=O)(=O)N1CCCn2nc(-c3ccc(OC)c(OC)c3)cc2C1	104
COC(=O)c1ccc(N2CCN(C)CC2)c(NC(=O)C2(c3ccccc3)CCCC2)c1	103
Cc1ccc(S(=O)(=O)N(CC(O)Cn2c3ccc(Cl)cc3c3cc(Cl)ccc32)c2ccc(F)cc2)cc1 (stereo not given)	103
CC(C)Cc1csc(-c2csc(S(=O)(=O)NCCN3CCOCC3)c2)n1	96
O=C(CN1C(=O)CN(C(=O)Nc2ccc(F)cc2)c2ccccc21)N1CCC(N2CCCCC2)CC1	101
Cc1cc(-c2cc(S(=O)(=O)N(CCN(C)C)Cc3cccs3)c(C)s2)n[nH]1	98
CCOC(=O)C(NC(=O)c1cccc(F)c1)(Nc1sc2c(c1C#N)CCCC2)C(F)(F)F (stereo not given)	106
COc1ccc(NC(=O)C2Cc3ccccc3CN2S(C)(=O)=O)cc1OC (stereo not given)	102
C=CCn1c(SCC(=O)Nc2ccc(C(=O)OC)cc2)nc2sc3c(c2c1=O)CCCC3	98
O=C(NCc1ccc(F)cc1)N1CCC(N2CCN(Cc3ccc(F)cc3)C(=O)C2=O)CC1	94
CCOc1ccc(CN2C(=O)c3ccccc3CC2(C)C(=O)NCc2ccc(OC)cc2)cc1 (stereo not given)	106
CC(=O)c1ccc(N2C(=O)/C(=C/c3ccc(-c4cc(Cl)ccc4Cl)o3)C=C2c2ccccc2)cc1	108
O=C(c1ccco1)N1CCc2c([nH]c3ccccc23)C1	112
Cc1cc([N+](=O)[O-])ccc1N1C(=O)C2C3c4ccccc4C(c4ccccc43)C2C1=O (stereo not given)	103
CCOC(=O)c1ccc(-n2nnnc2C2(Nc3ccc(NC(C)=O)cc3)CCCCC2)cc1	105
CCCCN1C(=O)C(C)(C(=O)N2CCN(C)CC2)Oc2cccnc21 (stereo not given)	101
COc1cc(-n2cnc3cc(C(=O)NCCN4CCOCC4)ccc32)cc(OC)c1OC	107
O=C(NC1CCCC1)NC1CCCN(c2cc(N3CCCC3)ncn2)C1 (stereo not given)	100
CC(C)(C)c1cc(CCC(=O)OCCOCCOC(=O)CCc2cc(C(C)(C)C)c(O)c(C(C)(C)C)c2)cc(C(C)(C)C)c1O	109
CC(=O)C1=NN(c2ccc(Br)cc2)C2(CCC(c3ccccc3)=NN2c2ccccc2)S1 (stereo not given)	95

Screens (PubChem)

An excerpt. The share of hits here may be higher or lower than overall.
